HNF4A DNA FP = change in binding of human HNF4 alpha to DNA. 0.3% of 360,000 active. P41235. HNF4a-FITC DNA binding, fluorescence polarization, 1 h. activity change, % at 10 µM; in the data active = activity change above about 30%, passing the limit was not always enough;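 also: controls were the assay level and a saturating level of protein; the project sought stronger binding though the title names inhibitors; some compounds called inactive have numbers as strong as hits; positive values seem to mean higher polarization but the record does not say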
LANA-H2A inh = blocks KSHV LANA binding to histone H2A/H2B; cell-free LANA-H2A/H2B peptide, fluorescence polarization; Q9QR71; AID 2629; inhibition, % (concentration not given with the values); 0.6% of 320,000 active; in the data active = inhibition mostly above about 10%, no sharp cut-off; inactive = mostly below about 6.7%;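 also: stock transfer was 7.5 nL into about 10 µL; 0% = median of vehicle wells and 100% = median of positive control wells; one replicate is shown; the record names a cut of 25% in any replicate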
Target sequence (Q9QR71 whole entry, looked up): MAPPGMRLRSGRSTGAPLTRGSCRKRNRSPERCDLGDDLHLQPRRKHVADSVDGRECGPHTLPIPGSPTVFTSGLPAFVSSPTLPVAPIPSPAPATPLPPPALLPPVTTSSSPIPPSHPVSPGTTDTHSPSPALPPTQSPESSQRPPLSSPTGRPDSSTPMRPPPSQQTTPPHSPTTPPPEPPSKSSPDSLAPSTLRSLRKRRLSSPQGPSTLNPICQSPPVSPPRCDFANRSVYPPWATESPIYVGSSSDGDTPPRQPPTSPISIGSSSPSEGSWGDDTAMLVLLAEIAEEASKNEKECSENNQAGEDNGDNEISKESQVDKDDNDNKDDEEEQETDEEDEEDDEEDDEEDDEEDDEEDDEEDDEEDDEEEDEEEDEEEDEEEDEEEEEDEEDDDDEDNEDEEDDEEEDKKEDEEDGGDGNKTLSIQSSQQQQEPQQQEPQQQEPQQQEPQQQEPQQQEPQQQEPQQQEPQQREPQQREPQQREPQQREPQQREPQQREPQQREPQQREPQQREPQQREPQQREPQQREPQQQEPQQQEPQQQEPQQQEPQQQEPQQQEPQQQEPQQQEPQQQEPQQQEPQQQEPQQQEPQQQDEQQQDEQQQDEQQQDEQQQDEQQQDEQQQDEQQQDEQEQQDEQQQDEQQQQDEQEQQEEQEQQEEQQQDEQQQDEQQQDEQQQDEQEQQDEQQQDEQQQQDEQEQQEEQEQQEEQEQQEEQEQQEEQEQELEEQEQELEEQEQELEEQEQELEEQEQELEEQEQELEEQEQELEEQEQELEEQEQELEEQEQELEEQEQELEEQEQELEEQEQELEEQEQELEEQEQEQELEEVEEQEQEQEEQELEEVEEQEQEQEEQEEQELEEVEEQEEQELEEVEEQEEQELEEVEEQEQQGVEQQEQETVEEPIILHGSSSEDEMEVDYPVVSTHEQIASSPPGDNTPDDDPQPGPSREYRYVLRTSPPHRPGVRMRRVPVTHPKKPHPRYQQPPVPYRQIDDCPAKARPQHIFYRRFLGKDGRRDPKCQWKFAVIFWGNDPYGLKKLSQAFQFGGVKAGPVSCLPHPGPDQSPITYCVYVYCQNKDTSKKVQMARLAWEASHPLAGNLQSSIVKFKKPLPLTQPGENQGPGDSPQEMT
UCH37 inh = human UCH37 deubiquitinating enzyme inhibition | Q9Y5K5 | inhibition, % (no concentration beside the values) | 0.33% of 330,000 active | purified proteasome/UCH37, Ub-AMC cleavage fluorescence;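 active = mean of two replicates above 20%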;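 also: 0% = compound-free wells with enzyme and 100% = wells lacking proteasome; stock transfer was 100 nL into about 20 µL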
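Material: human UCH37 enzyme supplied as purified proteasome complex / Amount: 0.15 nM proteasome as dispensed / Buffer or medium: pH 7.4 Tris-HCl (50 mM) with ovalbumin, ATP-MgCl2, DTT / Times: preincubation 30 min, reaction 25 min, room temperature / Technique: AMC fluorescence from Ub-AMC cleavage, excitation 355 nm, emission 460 nm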
Vif A3G = HIV-1 Vif–A3G interaction blockers – biochemical, TR-FRET, GST-Vif 1-94, biotin-A3G peptide, dose response retest, primary screen (AID 1117319) | TR-FRET GST-Vif / biotin-A3G peptide binding; higher % means a stronger effect; test concentration not given here; strong numbers were not always called active | inhibition, %; hits with a dose series show IC50 in µM | 0.57% of 260,000 active;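 active = above the screen mean plus three standard deviations and confirmed in dose response; inconclusive = results disagree or hit not tested in dose response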;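 also: Vif residues 1-94 fused to GST binding biotinylated APOBEC3G peptide 110-148; 0% = full assay without inhibitor and 100% = GST in place of GST-Vif; retest series ran down from 100 µM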
A1 inh = inhibitors of the anti-apoptotic protein A1, read as caspase activation; MEF A1-2A-BIM cells, Caspase-Glo 3/7 luminescence, 3 h; percent of clofoctol response, vehicle zero; caspase activation, % (concentration not given with the values); 0.066% of 330,000 active; AID 2462;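 active = over half of replicate activation scores above 10%, or exactly half above 10 with the replicate mean above 10; inconclusive = replicate mean below 10 yet half the replicates above 10; inactive = over half of replicates below 10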;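 also: wells of about 30 µL received 50 nL stock; many hits fall short of the cut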
E coli growth = blocks Escherichia coli growth. OD600, 23 h; hits give low values. OD600 absorbance (concentration not given with the values). 0.21% of 330,000 active;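 active = OD600 absorbance below the run mean of sample wells minus 3.6 SD, in any replicate, cut at about 0.56 in these data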;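 also: stock transfer was 300 nL into about 60 µL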
B2AR ag = agonists of human beta-2 adrenergic receptor inducing internalization | P07550 | Am2.2-beta2AR cells, FAP receptor internalization, flow cytometry; reference of the scale not given here | response, % (concentration not given with the values) | 0.43% of 340,000 active | AID 504454;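 active = response above a set limit, near 3 SD of response in nonfluorescent compounds, cut at about 42% in these data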;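 also: stock transfer was 100 nL into about 11 µL; a reference agonist was the positive control; negative values mostly stem from fluorescent compounds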
The depositor's hits bear a star; ? = inconclusive; / = not tested or not shown.

The line under a structure holds: B2AR ag, E coli growth, HNF4A DNA FP, UCH37 inh, LANA-H2A inh, Vif A3G, A1 inh
CN(C(=O)COC(=O)c1ccccc1Cc1ccccc1)c1c(N)n(Cc2ccccc2)c(=O)[nH]c1=O
 : -4, 0.64, 1.2, 0.9, 1.8, 8%, -1.1
COCCN1CCn2c(nc3cc([N+](=O)[O-])ccc32)C1
 : -8, 0.71, -0.7, 7.2, -10, 2%, 0.3
COc1ccc(-n2nc3ccc(NS(C)(=O)=O)cc3n2)cc1Cl
 : -8, 0.8, 1.9, -55, -2.0, -11%, -4.2
COCCN(C(=O)Cc1cccs1)C(C(=O)NCc1ccc(OC)cc1)c1ccc(C)cc1 (stereo not drawn)
 : -10, 0.68, -0.1, 0.9, 4.7, -2%, -0.2
O=C(O)c1ccc(/C=N/NC(=O)c2cc3ccccc3cc2O)cc1
 : -2, /, -0.2, /, 3.0, /, -0.4
Cn1c(C(=O)N2CCN(c3ccccc3)CC2)cc2cc(Cl)ccc21
 : 3, 0.67, 6.7, 3.0, -0.9, -15%, -0.1
CC(C)CNC(=O)C1CCN(S(=O)(=O)c2ccc3c(c2)OCCO3)CC1
 : -4, 0.68, 0.2, 3.2, 2.5, -5%, -0.4
COc1ccccc1C(=O)NCCC(=O)N1CCCCCCC1
 : -6, 0.7, 0.6, 0.5, -3.1, /, 0.6
Cc1cc(C)n2nc(-c3sccc3-n3cccc3)cc2n1
 : 9, 0.77, 1.1, -3.9, -5.1, -4%, -0.6
COc1ccc(-c2cc(=O)c3cc(OC)ccc3o2)cc1
 : -1, 0.78, 2.1, -48, 2.9, 16%, -0.5

(cont.)
The line under a structure holds: B2AR ag, E coli growth, HNF4A DNA FP, UCH37 inh, LANA-H2A inh, Vif A3G, A1 inh
Cc1ccc(-c2noc(CNC(=O)c3ccc4c(c3)OCO4)n2)cc1
 : 4, 0.61, 5.0, 2.1, -3.7, -1%, -0.7
O=C(COc1ccccc1[N+](=O)[O-])N1CCN(c2ccccn2)CC1
 : -6, 0.63, 0.1, 2.6, 2.5, 3%, 0.1
CCOC(=O)CSc1nc2ccccc2n1CC(=O)N(C(C)C)C(C)C
 : -1, 0.67, 4.2, 0.5, 4.6, 8%, 0.3
CC1(C)NC(=O)N(CC(=O)OCC(=O)NC(=O)c2ccccc2)C1=O
 : -3, 0.69, -4.8, 1.0, /, -2%, -0.2
O=C(NCc1ccc(F)cc1)C1CCCN(C(=O)NCc2ccccc2)C1 (stereo not drawn)
 : 20, 0.71, 1.7, 0.9, -2.1, /, 0.0
O=C(Cc1ncc(C(F)(F)F)cc1Cl)NCc1cccnc1
 : 7, 0.69, 2.1, 0.9, -3.7, 11%, 1.2
CCn1c(SCC(=O)Nc2ccc(NC(=O)c3cccs3)cc2)nnc1-c1cccnc1
 : -25, 0.74, 0.2, 1.7, 1.6, -3%, 0.0
CCOC(=O)c1nc(Nc2ccccc2C)c2ccccc2n1
 : 3, 0.6, -7.6, 3.2, -10, -5%, -0.5
COc1ccc(C2(CNC(=O)Cc3ccc(OC)c(OC)c3)CCOCC2)cc1
 : 2, 0.69, -2.1, 3.6, -4.1, 22%, 0.2
CCOc1ccc(C(=O)NC2CCN(C(=S)Nc3ccccc3C)CC2)cc1
 : 4, 0.68, 6.2, 2.0, -3.2, 2%, 0.6

Remaining list, next part:
The line under a structure holds: B2AR ag, E coli growth, HNF4A DNA FP, UCH37 inh, LANA-H2A inh, Vif A3G, A1 inh
Cc1sc(N)c(C(=O)c2ccccc2)c1C
 : 5, 0.64, 6.4, 0.6, -2.6, 18%, 0.0
Cc1ccc(/C(N)=N/OC(=O)CCCc2ccccc2)cc1
 : 3, 0.72, 1.9, -1.1, 2.0, -4%, -0.5
CCOc1ccccc1-c1cc(C(=O)N/N=C(\C)c2cccnc2)c2ccccc2n1
 : 2, /, 1.9, /, 3.5, /, ?
Cc1[nH]c2ccccc2c1/C=N\NC(=O)c1ccco1
 : 5, /, -0.3, /, 2.7, /, 0.1
COc1ccc(OCC(=O)N/N=C/c2ccc(OC)c(OC)c2C(=O)O)cc1
 : -6, /, 6.3, /, 3.3, /, -0.1
O=C(COC(=O)c1cccs1)Nc1cccc(S(=O)(=O)N2CCOCC2)c1
 : 5, 0.73, -2.4, 2.1, 3.3, /, 1.7
CCOc1ccc(C)cc1S(=O)(=O)Nc1ccc(Cl)cn1
 : 6, 0.75, -3.2, 0.5, 4.5, 8%, -0.1
Cc1ccc(-n2nc(C)c3c(C)c(CCC(=O)NCCCOC(C)C)c(C)nc32)cc1
 : 1, 0.62, 1.1, -51, -2.0, 2%, 0.7
CCOCCCNC(=O)c1ccc2c(c1)OCO2
 : -3, 0.73, 0.4, -2.3, 7.6, 16%, -0.6
O=C(CSc1nc2ccccc2[nH]1)Nc1ccc(F)cc1
 : -7, 0.65, -1.8, 1.9, 3.6, 3%, 0.3

Going on with the list:
The line under a structure holds: B2AR ag, E coli growth, HNF4A DNA FP, UCH37 inh, LANA-H2A inh, Vif A3G, A1 inh
CCn1cc(CNC(=O)CCc2nnc(CCC3CCCCC3)o2)cn1
 : 2, 0.7, 1.9, 2.9, -1.6, 12%, -6.5
CCSC(C)CC1C/C(=N/O)c2c(CC)noc2C1 (stereo not drawn)
 : -1, /, -1.8, /, -6.5, 2%, -0.2
COc1cccc(C(=O)N2CCSC2=S)c1
 : 2, 0.68, -1.3, -2.3, -6.6, -5%, 0.2
CCn1c(CSc2nc(C)cc(C)n2)nnc1SCC(=O)Nc1ccccc1
 : -8, 0.68, -1.6, 1.8, 5.1, 9%, -0.3
CCOC(=O)CC(NC(=O)CCc1c(C)nc2nc(C)nn2c1C)c1ccc(OC(C)C)cc1 (stereo not drawn)
 : -4, 0.7, 3.8, 2.3, -3.2, 2%, -1.3
O=C(Cc1ccccc1)Nc1nnc(-c2cccc([N+](=O)[O-])c2)s1
 : -6, 0.67, -3.2, 1.2, 0.1, 16%, 0.6
O=C(CSc1nnc(-c2cccnc2)n1Cc1ccccc1)N1CCOCC1
 : -3, 0.62, 1.0, -0.1, 6.4, ?, 0.7
CCOC(=O)C1=C(CN2CCN(C(=O)c3ccco3)CC2)NC(=O)NC1c1ccc(C)cc1 (stereo not drawn)
 : -2, 0.7, -2.3, -0.4, 3.4, /, -0.8
COc1ccc(C)cc1NC(=O)NC(C)c1ccncc1 (stereo not drawn)
 : 1, 0.67, -1.9, 5.9, -5.8, /, -0.2
Nc1ccc(S(=O)(=O)N2CCC(Cc3ccccc3)CC2)cc1
 : 7, 0.68, 2.6, 1.3, -6.9, 11%, 1.4

(next part)
The line under a structure holds: B2AR ag, E coli growth, HNF4A DNA FP, UCH37 inh, LANA-H2A inh, Vif A3G, A1 inh
Cc1ccccc1CNCc1ccc2c(c1)OCO2
 : -6, 0.65, -1.4, 0.5, /, 8%, /
O=C(c1ccc(Br)o1)N1N=C(c2ccc(Cl)cc2)CC1c1ccco1 (stereo not drawn)
 : 0, 0.74, 0.6, -6.0, 1.2, 2%, 0.0
O=C(O)c1cc(S(=O)(=O)N2CC3CC3C2C(=O)O)c(Cl)cc1Cl (stereo not drawn)
 : 1, 0.74, -1.5, 2.2, 1.2, 0%, 0.9
O=S1(=O)CC(O)C(Nc2ccccc2)C1 (stereo not drawn)
 : 1, 0.71, 2.5, 1.4, 5.1, 5%, 0.7
CC#CC(=O)N1CCC(CCC(=O)N(C)Cc2ccccc2)CC1
 : 0, 0.65, 2.4, 4.7, 2.2, /, 0.7
O=C(Cn1c(=O)oc2ccccc21)Nc1nc(-c2ccc(Br)cc2)cs1
 : 12, /, -1.0, /, -0.5, 31%, 0.0
FC(F)(F)c1ccc(NC2=NCCC2)cc1
 : 4, 0.62, -1.1, 0.6, -0.6, -2%, 0.3
O=C(CSc1nncc2ccccc12)Nc1cccc(O)c1
 : -5, 0.64, 2.2, 7.4, -9.1, /, -0.9
COc1ccc(C(C)=NNc2ccc([N+](=O)[O-])cc2S(=O)(=O)Nc2ccccc2C(=O)O)c(OC)c1
 : 10, 0.71, 2.5, 18, -6.4, 3%, ?
O=C(COc1ccccc1C(=O)NCc1ccccn1)Nc1ccc(Br)cc1
 : 9, 0.7, 3.8, 5.1, -1.5, -4%, -0.7

(cont.)
The line under a structure holds: B2AR ag, E coli growth, HNF4A DNA FP, UCH37 inh, LANA-H2A inh, Vif A3G, A1 inh
CC1(C)CC(=O)C(=C2SCCCS2)C(=O)C1
 : -1, 0.65, -1.0, 11, 3.0, -4%, 0.5
CCOC(=O)c1c(NC(C)=O)sc2c1C1CCN2CC1
 : 1, 0.7, 1.6, -1.3, -3.3, -3%, 0.3
CCn1c(CNc2ccccc2Cl)nnc1SCC(=O)NCc1ccccc1
 : -8, 0.68, 0.5, 1.8, -1.0, 11%, -0.7
O=C1CCN(Cc2nc(-c3ccc(Cl)cc3)no2)CCN1
 : -4, 0.66, -0.5, -1.2, 4.5, -2%, 0.9
CCOC(=O)[C@H]1[C@H]2COc3ccccc3[C@@H]2N2C(=O)c3cc(OC)ccc3NC(=O)[C@@]12C
 : 2, /, 1.8, -0.2, 0.5, /, 0.7
O=C1[C@H]2[C@@H](c3ccc(F)cc3)N3C(=O)N(c4cccc(F)c4)C(=O)[C@@]3(Cc3ccccc3)[C@H]2C(=O)N1C1CCCCC1
 : -3, /, 1.8, 1.0, -1.5, /, -0.1
CC(C)(C)NC(=O)CN(C(=O)C1CSC(=O)C1)c1ccc2c(c1)OCCO2 (stereo not drawn)
 : 17, 0.7, -0.4, 2.1, 5.7, 6%, -0.3
CC1CN(C(=O)c2cc(COc3c(F)cccc3F)on2)CCN1C (stereo not drawn)
 : 0, 0.66, 0.6, 3.0, 1.8, 2%, -0.4
COc1ccc(OCc2nnc(SCC(N)=O)n2N)cc1
 : 5, 0.71, 1.6, 3.3, 1.7, 1%, -0.1
CNC(=O)Nc1ccccc1C(=O)NCc1ccccc1
 : 2, 0.73, 2.4, 4.4, -1.4, ?, 0.7

Sorted by value in LANA-H2A inh (smallest number first): 3 of the compounds above.
| SMILES | B2AR ag | E coli growth | HNF4A DNA FP | UCH37 inh | LANA-H2A inh | Vif A3G |
| --- | --- | --- | --- | --- | --- | --- |
| CCOC(=O)c1c(NC(C)=O)sc2c1C1CCN2CC1 | 1 | 0.7 | 1.6 | -1.3 | -3.3 | -3% |
| O=C1[C@H]2[C@@H](c3ccc(F)cc3)N3C(=O)N(c4cccc(F)c4)C(=O)[C@@]3(Cc3ccccc3)[C@H]2C(=O)N1C1CCCCC1 | -3 | / | 1.8 | 1.0 | -1.5 | / |
| O=C(O)c1ccc(/C=N/NC(=O)c2cc3ccccc3cc2O)cc1 | -2 | / | -0.2 | / | 3.0 | / |

(cont.)
The line under a structure holds: B2AR ag, E coli growth, HNF4A DNA FP, UCH37 inh, LANA-H2A inh, Vif A3G, A1 inh
CNS(=O)(=O)c1cccc(C(=O)Nc2cccc(Cl)c2)c1
 : -8, 0.7, -1.7, 1.2, 1.1, 27%, -2.9
CC(C)(C)C(=O)NC(=S)Nc1ccc(Cl)c(C(=O)O)c1
 : 0, 0.72, -0.6, -1.1, 2.4, 14%, -0.1
CSc1ccccc1NC(=O)COC(=O)Cn1cc(C(F)(F)F)ccc1=O
 : -1, 0.66, -3.3, -1.6, 2.1, /, 0.4
COc1ccc(S(=O)(=O)N2CCOC2CNC(=O)C(=O)NCCc2ccc(OC)c(OC)c2)cc1C (stereo not drawn)
 : 0, 0.68, 0.0, 5.0, -7.6, -3%, 2.1
O=C(c1cccs1)N1CCN(S(=O)(=O)c2ccc(F)cc2)CC1
 : /, 0.71, /, 2.6, 2.9, ?, 0.1
Cc1ccc(C)c(SCC(=O)NC(=O)Nc2ccc3c(c2)OCCO3)c1
 : 3, 0.67, -1.7, 4.4, 4.1, -4%, 0.0

Screening results: PubChem, several laboratories

Outcome played no part in choosing rows; 2.1% or so of the library scored in one or more.
